Beta2AR agonist = beta2AR agonists driving receptor internalization, primary screen, cell-based, FAP fluorogen, flow cytometry | Beta-2 adrenergic receptor (Homo sapiens), P07550 | Am2.2-beta2AR cells; reference of the scale not given here | response, % (concentration not given with the values) | 340,000 tested, 0.43% active;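 active = response above a set limit, near 3 SD of response in nonfluorescent compounds, cut at about 42% in these data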;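 note: stock transfer was 100 nL into about 11 µL; a reference agonist was the positive control; negative values mostly stem from fluorescent compounds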
Target sequence (P07550 whole entry, looked up): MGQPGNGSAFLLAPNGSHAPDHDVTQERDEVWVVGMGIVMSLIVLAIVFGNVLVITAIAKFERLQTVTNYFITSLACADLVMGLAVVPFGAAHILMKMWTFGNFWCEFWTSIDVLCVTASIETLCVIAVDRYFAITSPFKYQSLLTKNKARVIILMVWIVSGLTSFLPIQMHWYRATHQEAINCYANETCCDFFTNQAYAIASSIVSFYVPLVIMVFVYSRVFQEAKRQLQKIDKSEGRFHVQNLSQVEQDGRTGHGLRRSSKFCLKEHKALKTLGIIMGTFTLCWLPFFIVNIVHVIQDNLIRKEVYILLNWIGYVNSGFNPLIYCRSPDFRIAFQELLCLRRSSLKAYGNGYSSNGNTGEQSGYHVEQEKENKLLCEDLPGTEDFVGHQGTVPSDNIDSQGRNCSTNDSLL
Vif TR-FRET = inhibitors of Vif binding to APOBEC3G peptide, primary screen, biochemical, TR-FRET, GST-Vif 1-94, biotin-A3G peptide, dose response retest (AID 1117319); Virion infectivity factor (Human immunodeficiency virus type 1 group M subtype B (isolate …; TR-FRET GST-Vif / biotin-A3G peptide binding; higher % means a stronger effect; test concentration not given here; strong numbers were not always called active; inhibition, %; hits with a dose series show IC50 in µM; 260,000 tested, 0.57% active;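 active = above the screen mean plus three standard deviations and confirmed in dose response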;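 note: Vif residues 1-94 fused to GST binding biotinylated APOBEC3G peptide 110-148; 0% = full assay without inhibitor and 100% = GST in place of GST-Vif; retest series ran down from 100 µM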
HNF4A DNA FP = change in binding of human HNF4A to DNA, primary screen, biochemical, fluorescence polarization, FITC-DNA | 1 h | AID 1224865, 2016 | activity change, % at 10 µM | 360,000 tested, 0.3% active | Hepatocyte nuclear factor 4-alpha (Homo sapiens), P41235; in the data active = activity change above about 30%, passing the limit was not always enough;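 note: controls were the assay level and a saturating level of protein; the project sought stronger binding though the title names inhibitors; some compounds called inactive have numbers as strong as hits; positive values seem to mean higher polarization but the record does not say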
Target sequence (P41235 whole entry, looked up): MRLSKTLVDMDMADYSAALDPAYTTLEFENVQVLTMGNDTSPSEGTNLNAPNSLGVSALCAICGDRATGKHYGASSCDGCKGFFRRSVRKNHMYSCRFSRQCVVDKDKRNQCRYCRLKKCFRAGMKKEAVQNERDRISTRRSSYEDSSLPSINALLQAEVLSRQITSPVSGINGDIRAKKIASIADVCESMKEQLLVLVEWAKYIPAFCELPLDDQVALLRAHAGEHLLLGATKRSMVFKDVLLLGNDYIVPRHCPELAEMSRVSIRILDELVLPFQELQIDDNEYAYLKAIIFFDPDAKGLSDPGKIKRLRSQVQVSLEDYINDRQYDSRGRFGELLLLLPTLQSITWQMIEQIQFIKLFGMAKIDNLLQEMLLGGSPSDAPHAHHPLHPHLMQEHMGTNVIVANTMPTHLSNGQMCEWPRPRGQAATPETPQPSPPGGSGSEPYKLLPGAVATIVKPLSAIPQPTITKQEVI
Active calls of the source: *; nt = no result given; & = joins results of further samples.

#	smiles	Beta2AR agonist	Vif TR-FRET	HNF4A DNA FP
1	CCOC(=O)[C@]12Cc3cc(OC)ccc3[C@H]1N(C1CCCCC1)C(=O)c1ccccc12	nt	nt	-0.2
2	FC(F)(F)c1ccc(-c2ccc3c(c2)CNCc2cnnn2-3)cc1	nt	nt	-1.6
3	CCC1(c2ccccc2)C(=O)NC(=O)NC1=O	-6	nt	-0.8
4	O=C/C=C/c1ccccc1	-6	nt	0.8
5	C=C1C(=O)OC2C1CCC(C)C1(O)C=CC(=O)C21C (stereo unspecified)	7	nt	-0.9
6	CN1CC[C@]23c4c5ccc(OC6OC(C(=O)O)[C@@H](O)C(O)[C@H]6O)c4OC2C(O)C=CC3[C@H]1C5 (stereo partly specified)	8	nt	-0.4
7	CCCCNC(C)Cc1ccccc1 (stereo unspecified)	-2	nt	0.0
8	O=C(O)CCCOc1ccc(Cl)cc1Cl	-2	nt	0.7
9	COC1C(O)C(C)OC(OC2CCC3(C=O)C(CCC4C3CCC3(C)C(C5=CC(=O)OC5)CCC43O)C2)C1O (stereo unspecified)	-1	nt	1.2
10	CN1[C@@H]2CCC[C@H]1CC(=O)C2	4	nt	4.4
11	COC1=CC=C2[C@H]3Cc4ccc(OC)c5c4[C@@]2(CCN3C)C1O5 (stereo partly specified)	-1	nt	3.4
12	N#CCCCCC#N	6	nt	1.2
13	CCOC(=O)[C@]12Cc3cc(C)ccc3[C@H]1N(Cc1ccccc1)C(=O)c1ccccc12	12	nt	-0.4
14	C=C(C)[C@@H]1[C@H]2OC(=O)[C@H]1[C@]1(O)C[C@H]3O[C@]34C(=O)O[C@H]2[C@]14C	-5	nt	3.7
15	COc1cc(/C=C2\C[C@H]3[C@@H]4CC=C5C[C@@H](N6CCCC6)CC[C@]5(C)[C@H]4CC[C@]3(C)[C@H]2O)cc(OC)c1OC	12	nt	15
16	Oc1cc(Cl)c(Cl)c(Cl)c1Cl	6	nt	-0.4
17	Nc1ccc(Br)cc1	9	nt	-2.7
18	Oc1ccc2c3c1OC1[C@H](O)CC[C@@]4(O)[C@@H](C2)N(CC2CC2)CC[C@]314 (stereo partly specified)	-1&-8	nt	4.2&3.6
19	CCC(=O)OC(Cc1ccccc1)(c1ccccc1)[C@H](C)CN(C)C (stereo partly specified)	3	nt	2.2
20	O=c1ccc2cc3ccoc3c(O)c2o1	-1	nt	1.5
21	CC1[C@H]2Cc3ccc(O)cc3[C@]1(C)CCN2C (stereo partly specified)	1	nt	5.8
22	CC(=O)N[C@@H]1CC[C@@]2(O)[C@H]3Cc4ccc(O)c5c4[C@@]2(CCN3CC2CC2)[C@@H]1O5	-5	nt	1.2
23	COc1cc(C2c3cc4c(cc3CC3COC(=O)C32)OCO4)cc(OC)c1O (stereo unspecified)	23	nt	-2.8
24	O=C1NC(=O)C(Cc2ccccc2)(Cc2ccccc2)C(=O)N1Cc1ccccc1	-2	nt	4.3
25	CCC1C2Cc3ccc(O)cc3C1(CC)CCN2C (stereo unspecified)	-14	nt	3.4
26	CN1CC[C@@]2(C)c3cc(O)ccc3N(C)[C@@H]12	5&5	nt	-1.2&-0.8
27	COc1ccc(CC2NCC(O)C2OC(C)=O)cc1 (stereo unspecified)	110*	nt	-0.6
28	CC(=O)OC1(C)CC(C)C(=O)C(C(O)CC2CC(=O)NC(=O)C2)C1 (stereo unspecified)	68*	nt	3.1
29	CNC(=O)Oc1ccccc1OC(C)C	-4	nt	5.2
30	CC(C)CC(N(C)C)C1(c2ccc(Cl)cc2)CCC1 (stereo unspecified)	2&1	nt	2.1&3.9
31	Nc1ccc(Cl)c(Cl)c1	7	nt	2.1
32	COC(=O)[C@@H](c1ccccc1)C1CCCCN1 (stereo partly specified)	7	nt	1.1

A different layout for 24 compounds above.
Results follow in this order: Beta2AR agonist, Vif TR-FRET, HNF4A DNA FP
9. COC1C(O)C(C)OC(OC2CCC3(C=O)C(CCC4C3CCC3(C)C(C5=CC(=O)OC5)CCC43O)C2)C1O (stereo unspecified)
  -1, nt, 1.2
10. CN1[C@@H]2CCC[C@H]1CC(=O)C2
  4, nt, 4.4
11. COC1=CC=C2[C@H]3Cc4ccc(OC)c5c4[C@@]2(CCN3C)C1O5 (stereo partly specified)
  -1, nt, 3.4
12. N#CCCCCC#N
  6, nt, 1.2
13. CCOC(=O)[C@]12Cc3cc(C)ccc3[C@H]1N(Cc1ccccc1)C(=O)c1ccccc12
  12, nt, -0.4
14. C=C(C)[C@@H]1[C@H]2OC(=O)[C@H]1[C@]1(O)C[C@H]3O[C@]34C(=O)O[C@H]2[C@]14C
  -5, nt, 3.7
15. COc1cc(/C=C2\C[C@H]3[C@@H]4CC=C5C[C@@H](N6CCCC6)CC[C@]5(C)[C@H]4CC[C@]3(C)[C@H]2O)cc(OC)c1OC
  12, nt, 15
16. Oc1cc(Cl)c(Cl)c(Cl)c1Cl
  6, nt, -0.4
17. Nc1ccc(Br)cc1
  9, nt, -2.7
18. Oc1ccc2c3c1OC1[C@H](O)CC[C@@]4(O)[C@@H](C2)N(CC2CC2)CC[C@]314 (stereo partly specified)
  -1&-8, nt, 4.2&3.6
19. CCC(=O)OC(Cc1ccccc1)(c1ccccc1)[C@H](C)CN(C)C (stereo partly specified)
  3, nt, 2.2
20. O=c1ccc2cc3ccoc3c(O)c2o1
  -1, nt, 1.5
21. CC1[C@H]2Cc3ccc(O)cc3[C@]1(C)CCN2C (stereo partly specified)
  1, nt, 5.8
22. CC(=O)N[C@@H]1CC[C@@]2(O)[C@H]3Cc4ccc(O)c5c4[C@@]2(CCN3CC2CC2)[C@@H]1O5
  -5, nt, 1.2
23. COc1cc(C2c3cc4c(cc3CC3COC(=O)C32)OCO4)cc(OC)c1O (stereo unspecified)
  23, nt, -2.8
24. O=C1NC(=O)C(Cc2ccccc2)(Cc2ccccc2)C(=O)N1Cc1ccccc1
  -2, nt, 4.3
25. CCC1C2Cc3ccc(O)cc3C1(CC)CCN2C (stereo unspecified)
  -14, nt, 3.4
26. CN1CC[C@@]2(C)c3cc(O)ccc3N(C)[C@@H]12
  5&5, nt, -1.2&-0.8
27. COc1ccc(CC2NCC(O)C2OC(C)=O)cc1 (stereo unspecified)
  110*, nt, -0.6
28. CC(=O)OC1(C)CC(C)C(=O)C(C(O)CC2CC(=O)NC(=O)C2)C1 (stereo unspecified)
  68*, nt, 3.1
29. CNC(=O)Oc1ccccc1OC(C)C
  -4, nt, 5.2
30. CC(C)CC(N(C)C)C1(c2ccc(Cl)cc2)CCC1 (stereo unspecified)
  2&1, nt, 2.1&3.9
31. Nc1ccc(Cl)c(Cl)c1
  7, nt, 2.1
32. COC(=O)[C@@H](c1ccccc1)C1CCCCN1 (stereo partly specified)
  7, nt, 1.1

(further entries)
#	smiles	Beta2AR agonist	Vif TR-FRET	HNF4A DNA FP
33	COc1cccc2c1cc([N+](=O)[O-])c1c(C(=O)O)cc3c(c12)OCO3	4	nt	2.0
34	Cc1cc(-c2cc(C)c(N)c(C)c2)cc(C)c1N	1	nt	-2.0
35	N#C/C(=C\c1ccc(O)cc1)C(=O)O	-3	nt	-0.6&3.8
36	CNC1(c2ccccc2Cl)CCCCC1=O (stereo unspecified)	-5	nt	0.2
37	C=CCN1CC[C@]23c4c5ccc(O)c4OC2C(O)CC[C@@]3(O)[C@H]1C5 (stereo partly specified)	-2	nt	-0.1
38	Oc1cc(Cl)c(Cl)c(Cl)c1	5	nt	2.9
39	N[C@@H]1CC[C@@]2(O)[C@H]3Cc4ccc(O)c5c4[C@@]2(CCN3CC2CC2)C1O5 (stereo partly specified)	-9	nt	-0.1
40	CCOC(=O)[C@]12Cc3ccccc3[C@H]1N(Cc1ccccc1)C(=O)c1ccccc12	-2	nt	-1.8

Some of these compounds in order of count of non-hydrogen atoms, smallest number first.
#	smiles	Beta2AR agonist	Vif TR-FRET	HNF4A DNA FP
35	N#C/C(=C\c1ccc(O)cc1)C(=O)O	-3	nt	-0.6&3.8
36	CNC1(c2ccccc2Cl)CCCCC1=O (stereo unspecified)	-5	nt	0.2
40	CCOC(=O)[C@]12Cc3ccccc3[C@H]1N(Cc1ccccc1)C(=O)c1ccccc12	-2	nt	-1.8

Next part:
#	smiles	Beta2AR agonist	Vif TR-FRET	HNF4A DNA FP
41	O=C(/C=C/c1ccccc1)N1Cc2ccccc2-n2nncc2C1	nt	-1%	1.3
42	COc1ccc2c(c1)C1(C)CCN(C)CC(C1)C2O (stereo unspecified)	nt	-4%	6.5
43	O=c1c2ccccc2nc(CBr)n1-c1ccc(Cl)cc1	nt	-7%	-3.0
44	COc1ccc(-n2c(-c3ccccc3F)nc3ccccc3c2=O)cc1	nt	-7%	-0.3
45	C[C@H](CO)N1C[C@H](C)[C@H](CN(C)C(=O)Oc2cccc3ccccc23)OCc2cnnn2CCCC1=O	nt	5%	-3.4
46	C=CCOC(=O)N1Cc2ccccc2-n2nncc2C1	nt	3%	-3.9
47	CC(C)S(=O)(=O)N1Cc2ccccc2-n2nncc2C1	nt	-3%	-0.8
48	CN1C2CNC(=O)CC1C1CCC2C1 (stereo unspecified)	nt	-5%	1.7
49	O=C1CC(N2CC2)C(=O)N1c1ccccc1 (stereo unspecified)	nt	9%	4.8
50	O=C(NCC1=C(c2cccc3ccccc23)C[C@@H]2CC[C@H]1N2Cc1ccco1)c1ccncc1	nt	1%	5.9
51	COc1ccc(-n2c(=S)[nH]c3ccc(C)cc3c2=O)cc1	nt	-12%	2.9
52	CC(C)NC1C2CCC(CC2)C1(O)c1ccc(Cl)c(Cl)c1 (stereo unspecified)	nt	0%	0.7
53	O=C(NCC1=C(c2ccc3ccccc3c2)C[C@@H]2CC[C@H]1N2Cc1ccco1)c1nccs1	nt	4%	0.2
54	Cc1cc2c(C(C)C)c(O)c(O)c(C=O)c2c(O)c1-c1c(C)cc2c(C(C)C)c(O)c(O)c(C=O)c2c1O	nt	0%	-15
55	O=C1Nc2ccccc2Oc2ccccc21	nt	-5%	0.8
56	c1ccc(CN2CCC3CC2c2ccc(N4CCOCC4)cc23)cc1 (stereo unspecified)	nt	1%	-1.3
57	C[C@H]1CN([C@@H](C)CO)C(=O)CCCn2nncc2CO[C@H]1CN(C)C(=O)Oc1cccc2ccccc12	nt	-7%	-0.2
58	O=C(NCC1=C(c2cccc3ccccc23)C[C@@H]2CC[C@H]1N2Cc1ccco1)c1cccnc1	nt	-2%	0.8
59	Cc1cc(C)c(S(=O)(=O)N2Cc3ccccc3-n3nncc3C2)c(C)c1	nt	-9%	0.5
60	COC(=O)C1=C(c2ccc(OCc3ccccc3)cc2)C[C@@H]2CC[C@H]1N2C(=O)NCc1ccc2[nH]ccc2c1	nt	5%	-4.2
61	CC1CN2C(=O)C1(c1ccccc1)C(=O)NC2=S (stereo unspecified)	nt	-6%	-1.7
62	Cc1cccc(OCC(O)CN2CC2)c1 (stereo unspecified)	nt	-6%	1.5
63	CS(=O)(=O)c1ccc(C2=C(CNC(=O)c3ccncc3)[C@H]3CC[C@@H](C2)N3Cc2ccccc2)cc1	nt	7%	5.5
64	C[C@H]1CN([C@@H](C)CO)C(=O)CCCn2nncc2CO[C@@H]1CN(C)C(=O)Oc1ccccc1	nt	3%	2.9
65	COc1cccc(CN2CCN(c3ccc(F)cc3)CC2)c1OC	nt	-7%	2.7

These rows are one share of the data, so the mix of outcomes need not match the whole.
